Insulin prom inh = TRM-6 insulin promoter activity inhibition | TRM-6 cells (human fetal islet line), insulin promoter-eGFP reporter, imaging; reporter expression induced with tamoxifen | inhibition, % at 2 µM | 130,000 tested, 0.9% active | AID 1273;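 active = inhibition above the mean plus 3 SD, with well images judged a real hit on visual review, cut at about 60% in these data, passing the limit was not always enough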
RGS16-Gao = regulators of human RGS16-Galphao interaction; 220,000 tested, 0.38% active; O15492+P09471; binding response (% of control), % at 10 µM; AID 1441; bead-based flow cytometry RGS16-Galphao binding, fluorescence; actives lie on both sides;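 active = below 25% or above 175%, edge rows of some plates excepted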;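 also: Galphao activated by GDP with aluminum fluoride before binding; 100% = wells without compound and 0% = beads without RGS; some results beyond the cut were filed as inactive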
Target sequence (O15492 whole entry, looked up): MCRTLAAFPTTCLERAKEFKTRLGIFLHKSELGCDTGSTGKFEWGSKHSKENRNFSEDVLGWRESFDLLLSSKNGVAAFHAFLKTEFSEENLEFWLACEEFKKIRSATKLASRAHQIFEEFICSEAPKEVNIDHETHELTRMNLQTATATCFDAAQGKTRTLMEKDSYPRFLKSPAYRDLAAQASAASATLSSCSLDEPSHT
Target sequence (P09471 whole entry, looked up): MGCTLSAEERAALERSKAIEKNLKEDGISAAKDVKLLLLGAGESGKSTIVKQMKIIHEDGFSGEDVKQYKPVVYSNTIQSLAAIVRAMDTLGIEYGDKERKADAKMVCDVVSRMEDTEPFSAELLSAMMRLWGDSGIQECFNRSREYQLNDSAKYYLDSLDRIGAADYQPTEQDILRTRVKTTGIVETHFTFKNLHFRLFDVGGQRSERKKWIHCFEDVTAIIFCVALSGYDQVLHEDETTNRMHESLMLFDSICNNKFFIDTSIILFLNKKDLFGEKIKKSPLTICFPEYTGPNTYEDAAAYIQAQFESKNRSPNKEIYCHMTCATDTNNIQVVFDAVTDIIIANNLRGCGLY
HSV augment = increases HSV replication in cells. HSV replication augmentation in cells, fold increase. 220,000 tested, 0.005% active. AID 1956. maximum fold increase;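 active = peak rise of 1.5-fold or more in the series; tested in PC3 cells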;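 also: first round at 10 µM; read as green reporter fluorescence; hits show the peak of a series up to 25 µM; 1 = signal of infected wells without compound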
GALR2 agonist = agonists of human galanin receptor 2 (GALR2) | GALR2-expressing cells, agonist activation read-out | activation, %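 (tested at 5 µM)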 | 140,000 tested, 0.48% active | O43603;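 active = above mean plus 3 SD of all compounds, about 5% in these data, not always enough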;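 also: 0% = vehicle buffer wells and 100% = reference agonist at full effect; tested in CHO reporter cells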
Target sequence (O43603 whole entry, looked up): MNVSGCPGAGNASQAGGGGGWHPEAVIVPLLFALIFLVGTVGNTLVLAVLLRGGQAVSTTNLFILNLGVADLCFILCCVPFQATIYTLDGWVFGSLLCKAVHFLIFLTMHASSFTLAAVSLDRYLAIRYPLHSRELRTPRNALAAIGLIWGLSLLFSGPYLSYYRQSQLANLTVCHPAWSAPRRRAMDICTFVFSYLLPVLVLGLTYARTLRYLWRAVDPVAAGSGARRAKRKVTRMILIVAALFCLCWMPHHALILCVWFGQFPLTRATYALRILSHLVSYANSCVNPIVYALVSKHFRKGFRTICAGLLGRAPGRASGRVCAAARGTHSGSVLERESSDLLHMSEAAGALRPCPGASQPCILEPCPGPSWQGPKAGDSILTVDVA
PKD1 kinase inh = blocks activity of human protein kinase D1 | 200,000 tested, 0.056% active | PKD1 kinase fluorescence polarization assay | inhibition, %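 (about 10 µM by stock and volumes)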 | Q15139;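 active = inhibition of 50% or more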;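 also: controls were vehicle for no effect and a reference inhibitor for full effect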
Insulin prom inh cell count = also measured in Insulin prom inh; calls as there; normalized cell count, %; measured here: cell count, toxicity; reference of the scale not given here;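 cells exposed to compound for 48 h; stained nuclei by imaging scaled within each plate; lower means fewer cells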
HSV augment primary fold = further read-out of HSV augment, marked with its call; fold increase; compound at 10 µM; measured here: primary screen fold increase 10 uM; tested in PC3 cells;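 GFP signal in the first replicate; 1 = infected wells without compound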
* hit, by the source's call. This is a random part of the collection; about 1.3% have a hit in one of these screens.

A first look, 3 compounds:
Results for COc1cccc(/C=N/Nc2ncnc3c2[nH]c2ccc(C)cc23)c1OC ?
RGS16-Gao: 77; HSV augment: inactive; HSV augment primary fold: 1

How did NC(=O)COC(=O)c1ccccc1SCC(=O)NC1CCCCCC1 do in these assays?
Insulin prom inh: 57; RGS16-Gao: 106; HSV augment: inactive; PKD1 kinase inh: 3; Insulin prom inh cell count: 78; HSV augment primary fold: 1

How did COc1ccc(-c2c[n+](CC(=O)c3cccs3)c3n2CCC3)cc1 do in these assays?
RGS16-Gao: 93; HSV augment: inactive; HSV augment primary fold: 0.89

The listing (from the top)
Results for COc1cccc(/C=N/Nc2ncnc3c2[nH]c2ccc(C)cc23)c1OC ?
RGS16-Gao: 77; HSV augment: inactive; HSV augment primary fold: 1

How did NC(=O)COC(=O)c1ccccc1SCC(=O)NC1CCCCCC1 do in these assays?
Insulin prom inh: 57; RGS16-Gao: 106; HSV augment: inactive; PKD1 kinase inh: 3; Insulin prom inh cell count: 78; HSV augment primary fold: 1

How did COc1ccc(-c2c[n+](CC(=O)c3cccs3)c3n2CCC3)cc1 do in these assays?
RGS16-Gao: 93; HSV augment: inactive; HSV augment primary fold: 0.89

Results for COc1cc2[nH]c(=O)n(CCC(=O)NCCC(C)C)c(=O)c2cc1OC ?
Insulin prom inh: -29; RGS16-Gao: 100; HSV augment: inactive; GALR2 agonist: -1.2; PKD1 kinase inh: -3; Insulin prom inh cell count: 93; HSV augment primary fold: 0.97

What do the screens show for `CC(CCc1ccccc1)NCC(O)c1cccc([N+](=O)[O-])c1` (stereo not given)?
RGS16-Gao: 113; HSV augment: inactive; PKD1 kinase inh: -9; HSV augment primary fold: 0.78

How did Cc1ccc(NC(=S)Nc2ccc(S(=O)(=O)N3CCOCC3)cc2)cc1S(=O)(=O)N1CCOCC1 do in these assays?
RGS16-Gao: 101; HSV augment: inactive; PKD1 kinase inh: -5; HSV augment primary fold: 1.1

What do the screens show for `CCOC(=O)C1(Cc2cccc(OC)c2)CCN(Cc2ccc3c(c2)OCCO3)CC1`?
RGS16-Gao: 102; HSV augment: inactive; PKD1 kinase inh: -2; HSV augment primary fold: 1

How did COC(=O)C1=C(C)N(CCCC(=O)O)C(=O)NC1c1ccc(-c2ccccc2)cc1 (stereo not given) do in these assays?
Insulin prom inh: 0; RGS16-Gao: 98; HSV augment: inactive; GALR2 agonist: -0.2; PKD1 kinase inh: -5; Insulin prom inh cell count: 97; HSV augment primary fold: 0.97

How did CCOC(=O)N/N=C/c1cc(C)n(-c2ccccc2)c1C do in these assays?
Insulin prom inh: 7; RGS16-Gao: 103; HSV augment: inactive; GALR2 agonist: 0.0; PKD1 kinase inh: -6; Insulin prom inh cell count: 118; HSV augment primary fold: 1

Results for Cc1cc2c(=O)[nH]cnc2s1 ?
Insulin prom inh: -83; RGS16-Gao: 99; HSV augment: inactive; GALR2 agonist: -1.0; PKD1 kinase inh: 4; Insulin prom inh cell count: 83; HSV augment primary fold: 1.1

What do the screens show for `O=C(Nc1ccccc1C(=O)N1CCCC1)c1ccc(Cl)c([N+](=O)[O-])c1`?
RGS16-Gao: 94; HSV augment: inactive; PKD1 kinase inh: -3; HSV augment primary fold: 1.1

What do the screens show for `CCOC(=O)c1c(NC(=O)CSc2c[nH]c3ccccc23)sc2c1CCCC2`?
Insulin prom inh: -10; HSV augment: inactive; GALR2 agonist: 0.1; PKD1 kinase inh: -21; Insulin prom inh cell count: 100; HSV augment primary fold: 0.81

What do the screens show for `Cc1nc(CNS(=O)(=O)c2cccnc2)cs1`?
Insulin prom inh: -125; RGS16-Gao: 104; HSV augment: inactive; GALR2 agonist: -1.2; PKD1 kinase inh: -6; Insulin prom inh cell count: 100; HSV augment primary fold: 1.1

Results for COc1cccc(C=Nc2cccnc2)c1O ?
RGS16-Gao: 94; HSV augment: inactive; GALR2 agonist: -0.5; PKD1 kinase inh: -4; HSV augment primary fold: 0.79

What do the screens show for `COc1ccc(NC(=S)c2ccncc2)cc1`?
Insulin prom inh: 41; RGS16-Gao: 102; HSV augment: inactive; GALR2 agonist: 0.1; PKD1 kinase inh: -6; Insulin prom inh cell count: 130; HSV augment primary fold: 0.96

Results for Cc1csc(SCCn2c(N3CCOCC3)nc3c2c(=O)[nH]c(=O)n3C)n1 ?
RGS16-Gao: 101; HSV augment: inactive; GALR2 agonist: -1.3; PKD1 kinase inh: -8; HSV augment primary fold: 1.1

How did CCN(CC(=O)NCc1ccc(F)cc1)C(=O)/C=C/c1cccs1 do in these assays?
RGS16-Gao: 100; HSV augment: inactive; PKD1 kinase inh: -6; HSV augment primary fold: 1

What do the screens show for `C/C=C\C=C/C(=O)Nc1cccc(C2=NOC3(C2)C[C@@H](C(N)=O)N(C(=O)c2ccccc2)C3)c1` (stereo not given in full)?
RGS16-Gao: 99; HSV augment: inactive; HSV augment primary fold: 0.76

Results for COc1cccc(C2=NOC(C(=O)N3CCc4ccccc4C3)C2)c1 (stereo not given) ?
RGS16-Gao: 100; HSV augment: inactive; GALR2 agonist: -0.3; PKD1 kinase inh: 1; HSV augment primary fold: 0.97

Results for COc1ccccc1C1C(C#N)=C(N)Oc2c1oc(CO)cc2=O (stereo not given) ?
Insulin prom inh: 21; RGS16-Gao: 59; HSV augment: inactive; PKD1 kinase inh: 7; Insulin prom inh cell count: 125; HSV augment primary fold: 1.1

What do the screens show for `O=C(CN1CCCCCC1=O)OCc1ncc(-c2ccccc2)o1`?
RGS16-Gao: 101; HSV augment: inactive; GALR2 agonist: -1.6; PKD1 kinase inh: -17; HSV augment primary fold: 0.75

Results for CC(C)(C)c1ccc(C(=O)N2CCC(C(=O)NCc3ccco3)CC2)cc1 ?
Insulin prom inh: -344; RGS16-Gao: 102; HSV augment: inactive; GALR2 agonist: -1.9; PKD1 kinase inh: -1; Insulin prom inh cell count: 113; HSV augment primary fold: 0.91

Results for N#C/C(=C(/O)COC(=O)c1ccc(O)cc1)c1nc2ccccc2[nH]1 ?
RGS16-Gao: 96; HSV augment: inactive; HSV augment primary fold: 1.1

What do the screens show for `COC(=O)/C(=N/Nc1ccc(C)cc1)N1CCCc2ccccc21`?
RGS16-Gao: 101; HSV augment: inactive; GALR2 agonist: -1.9; PKD1 kinase inh: -6; HSV augment primary fold: 1

What do the screens show for `O=C1N=C(N2CCOCC2)S/C1=C\c1ccc(OS(=O)(=O)c2ccccc2)cc1`?
Insulin prom inh: 17; RGS16-Gao: 156; HSV augment: inactive; PKD1 kinase inh: 0; Insulin prom inh cell count: 77; HSV augment primary fold: 0.82

How did CC(=O)Oc1ccc(-c2cccc(C(=O)Oc3ccccc3)c2)cc1 do in these assays?
Insulin prom inh: -55; RGS16-Gao: 76; HSV augment: inactive; GALR2 agonist: -0.5; PKD1 kinase inh: -3; Insulin prom inh cell count: 86; HSV augment primary fold: 0.9

How did Cc1ccc(S(=O)(=O)NCCNC(=O)c2nonc2N)cc1 do in these assays?
Insulin prom inh: 8; RGS16-Gao: 88; HSV augment: inactive; GALR2 agonist: -1.0; PKD1 kinase inh: 1; Insulin prom inh cell count: 94; HSV augment primary fold: 1

What do the screens show for `CCOC(=O)c1c(C)[nH]c(C(=O)COC(=O)c2oc3ccc(OC)cc3c2C)c1C`?
Insulin prom inh: 30; RGS16-Gao: 134; HSV augment: inactive; GALR2 agonist: -2.0; PKD1 kinase inh: 0; Insulin prom inh cell count: 107; HSV augment primary fold: 0.83

How did Cc1nnc2n(c1=O)C(CS(=O)(=O)c1ccccc1)CS2 (stereo not given) do in these assays?
RGS16-Gao: 101; HSV augment: inactive; GALR2 agonist: -2.0; PKD1 kinase inh: 10; HSV augment primary fold: 0.76

Results for Fc1ccc(OCc2nc3ccccc3s2)cc1 ?
Insulin prom inh: -22; RGS16-Gao: 100; HSV augment: inactive; PKD1 kinase inh: 4; Insulin prom inh cell count: 99; HSV augment primary fold: 1.1

What do the screens show for `O=C1CC(NNc2nc3ccccc3s2)C(=O)N1c1ccc(F)cc1` (stereo not given)?
RGS16-Gao: 95; HSV augment: inactive; HSV augment primary fold: 0.91

Results for COC(=O)c1ccc(Oc2nc(Nc3ccccc3)nc(N(C)C)n2)cc1 ?
Insulin prom inh: inactive; RGS16-Gao: 103; HSV augment: inactive; GALR2 agonist: -2.4; PKD1 kinase inh: -2; Insulin prom inh cell count: 60; HSV augment primary fold: 0.81

How did CCN(CC)S(=O)(=O)c1ccc(C(=O)Nc2c3c(nn2C(C)(C)C)CS(=O)(=O)C3)cc1 do in these assays?
Insulin prom inh: -45; RGS16-Gao: 113; HSV augment: inactive; GALR2 agonist: -0.3; PKD1 kinase inh: 7; Insulin prom inh cell count: 71; HSV augment primary fold: 0.87

How did CC(C)NC(=O)c1ccc(-c2cc(C(F)(F)F)ccc2Cl)o1 do in these assays?
Insulin prom inh: -31; RGS16-Gao: 98; HSV augment: inactive; GALR2 agonist: -2.1; PKD1 kinase inh: 3; Insulin prom inh cell count: 128; HSV augment primary fold: 1

What do the screens show for `Cc1ccc(Cn2nnc(C(=O)Nc3cc(C)ccc3C)c2N)cc1`?
Insulin prom inh: -6; RGS16-Gao: 102; HSV augment: inactive; GALR2 agonist: -0.3; PKD1 kinase inh: 0; Insulin prom inh cell count: 123; HSV augment primary fold: 0.93

Results for O=C(Nc1ccc2c(c1)OCO2)c1ccc(Br)o1 ?
Insulin prom inh: 0; RGS16-Gao: 94; HSV augment: inactive; GALR2 agonist: -1.2; PKD1 kinase inh: -3; Insulin prom inh cell count: 106; HSV augment primary fold: 0.97

Results for CCN(CC)CCNc1nc2nonc2nc1NCCN(CC)CC ?
RGS16-Gao: 101; HSV augment: inactive; HSV augment primary fold: 0.92

How did COc1ccc(N=C2C(=Nc3ccc(OC)cc3)N(c3ccc(OC)cc3)C(=S)N2C)cc1 do in these assays?
Insulin prom inh: -22; RGS16-Gao: 107; HSV augment: inactive; GALR2 agonist: -5.0; PKD1 kinase inh: -2; Insulin prom inh cell count: 125; HSV augment primary fold: 0.92

What do the screens show for `COc1cccc(CC(NC(C)=O)C(=O)NC2CCN(c3nc(C)cc(C)c3C#N)CC2)c1` (stereo not given)?
Insulin prom inh: 27; RGS16-Gao: 98; HSV augment: inactive; GALR2 agonist: -1.6; PKD1 kinase inh: 6; Insulin prom inh cell count: 155; HSV augment primary fold: 0.91

How did Cc1cc(=O)oc(C)c1C(=O)OCC(=O)c1ccc2ccccc2c1 do in these assays?
RGS16-Gao: 94; HSV augment: inactive; GALR2 agonist: -0.7; PKD1 kinase inh: -6; HSV augment primary fold: 0.99

Results for COc1ccc2c(c1)c(C(=O)CN1CCOCC1)c(C)n2C ?
RGS16-Gao: 211; HSV augment: inactive; GALR2 agonist: -0.3; PKD1 kinase inh: 3; HSV augment primary fold: 0.97

How did CC(=O)N1C(=O)C2(C(C#N)=C(N)Oc3cc(C)oc(=O)c32)c2ccccc21 (stereo not given) do in these assays?
Insulin prom inh: 41; RGS16-Gao: 95; HSV augment: inactive; GALR2 agonist: -0.8; PKD1 kinase inh: -2; Insulin prom inh cell count: 92; HSV augment primary fold: 0.95

What do the screens show for `NC(=O)c1ccc(NC(=O)CN2CCN(c3ccc(Cl)cc3)CC2)cc1`?
Insulin prom inh: -45; RGS16-Gao: 29; HSV augment: inactive; PKD1 kinase inh: 1; Insulin prom inh cell count: 148; HSV augment primary fold: 0.97

What do the screens show for `COc1ccc(OC)c(C2C(C(C)=O)=C(O)C(=O)N2CCc2ccc(OC)c(OC)c2)c1` (stereo not given)?
Insulin prom inh: -38; RGS16-Gao: 105; HSV augment: inactive; GALR2 agonist: -0.1; PKD1 kinase inh: 0; Insulin prom inh cell count: 114; HSV augment primary fold: 0.99

How did COc1cccc(CN(C)C(=O)c2cc(COc3ccc4ncccc4c3)on2)c1 do in these assays?
RGS16-Gao: 113; HSV augment: inactive; PKD1 kinase inh: 5; HSV augment primary fold: 0.93

What do the screens show for `COC(=O)CSc1nnc2n(-c3ccc(OC)cc3)c(=O)c3c4c(sc3n12)CCCCC4`?
Insulin prom inh: -19; RGS16-Gao: 97; HSV augment: inactive; GALR2 agonist: 1.7; PKD1 kinase inh: 0; Insulin prom inh cell count: 102; HSV augment primary fold: 0.67

Results for CCOc1cc(/C=C2\N=C3CCCCCN3C2=O)ccc1O ?
RGS16-Gao: 101; HSV augment: inactive; PKD1 kinase inh: 1; HSV augment primary fold: 1.2

For reference, part of the list above:
How did COc1cccc(CN(C)C(=O)c2cc(COc3ccc4ncccc4c3)on2)c1 do in these assays?
RGS16-Gao: 113; HSV augment: inactive; PKD1 kinase inh: 5; HSV augment primary fold: 0.93

What do the screens show for `COC(=O)CSc1nnc2n(-c3ccc(OC)cc3)c(=O)c3c4c(sc3n12)CCCCC4`?
Insulin prom inh: -19; RGS16-Gao: 97; HSV augment: inactive; GALR2 agonist: 1.7; PKD1 kinase inh: 0; Insulin prom inh cell count: 102; HSV augment primary fold: 0.67

Source: PubChem BioAssay
